H5N1 CPE – MDCK cell protection from H5N1 avian flu | cytopathic effect, luminescence, 72 h; stronger effect = higher value; no value below 0 was filed and about half of the inactive calls have no number; reference of the scale not given here | inhibition, % at 50 µM | 96,000 tested, 0.07% active | AID 740; in the data active = inhibition above about 25%
Starred values were filed as active, the others as inactive; i = inactive.

SMILES	H5N1 CPE
Cc1nc2cc(-c3ccccc3)nn2c(C)c1CCC(=O)N1CCC2(CC1)OCCO2	1.4
CCn1ncc(C2=NOC(C(=O)Nc3cccc(C(C)=O)c3)C2)c1C (configuration not stated)	0.9
CCc1nc2ccc(C)cc2c(C(=O)Oc2cccc3cccnc23)c1C	1.4
CCN(C(=O)c1cc2cc(OC)ccc2oc1=O)c1cccc(C)c1	0.8
Cc1ccc(S(=O)(=O)/N=C(\CN2CCOCC2)N2CCCC2)cc1	0.2
Cc1ccc(C(NC(=O)N2CCOCC2)=C(Cl)Cl)cc1F	7.7
CCS(=O)(=O)NCCc1csc(-c2ccccc2)n1	1.1
Cc1ccc(-c2csc(NC(=O)COC(=O)c3cccc(S(=O)(=O)N4CCOCC4)c3)n2)cc1	i
O=C(CCCCn1c(=O)c2ccccc2n(CC(=O)NC2CCCC2)c1=O)NC1CCCC1	0.1
CC(C)CN1C(=S)SC(C)(C)C1n1oc(=O)n(-c2ccc(Cl)cc2)c1=O (configuration not stated)	i
COc1ccc(Oc2c(C)oc3cc(OC(=O)N4CCOCC4)ccc3c2=O)cc1	1.1
CC1CC(=O)C2=C(C1)Nc1ccccc1N=C2 (configuration not stated)	0.6
CCOC(=O)Cc1nnc2c(Nc3ccccc3F)nc3nonc3n12	0.3
Cc1ccc(C(=O)NCc2ccco2)cc1[N+](=O)[O-]	2.2
COCCCNCCOCCOc1ccc(C)cc1[N+](=O)[O-]	0.4
CC1(C)N=C(N)NC(Nc2ccc(Br)cc2)=N1	i
Cc1ccc(CN2CCN(CC(=O)NCCCN3CCN(c4ccc(F)cc4)CC3)C2=O)cc1	i
CC(=O)N1CCN(C(=S)c2ccc([N+](=O)[O-])cc2)CC1	1.2
COC(=O)/C=C/C(=O)NCc1ccco1	0.2
CCN(CC(=O)Nc1ccc(S(N)(=O)=O)cc1)S(=O)(=O)c1cc(C)ccc1OC	0.4
CC1(C)CC(=O)C(CCC(=O)c2ccccc2)C(C)(C)N1 (configuration not stated)	i
COc1ccc2c(c1OC)C(=O)N1C2SC[C@H]1C(=O)NC1CC(C)(C)NC(C)(C)C1 (some centres not stated)	0.1
CCOCC(=O)Nc1nnc(C2CCCCC2)s1	0.1
COc1ccc(Cl)cc1-n1c(N)c(C(N)=O)sc1=S	0.2
Brc1ccc(-c2nc(-c3ccccn3)no2)o1	i

Of the compounds above, these contain bromine:
SMILES	H5N1 CPE
CC1(C)N=C(N)NC(Nc2ccc(Br)cc2)=N1	i
Brc1ccc(-c2nc(-c3ccccn3)no2)o1	i

Next section.
SMILES	H5N1 CPE
COC(=O)C1=C(NC(=O)c2cccc(OC)c2)CCS1	0.2
Cc1ccc(S(=O)(=O)/C(C#N)=C/c2c(N3CC(C)OC(C)C3)nc3ccccn3c2=O)cc1 (configuration not stated)	i
COc1ccc(CCN2CC(C(=O)NCc3ccco3)CC2=O)cc1OC (configuration not stated)	i
Cc1cc(NC(=O)c2cccc(COc3ccc(Br)cc3)c2)no1	i
N#CCCn1cc(/C=N/O)c(-c2ccccc2)n1	i
CCCCN(C(=O)Nc1ccc(OCC)cc1)C1CCN(C(C)=O)CC1	i
Cn1c(=O)c2ncn(CC(=O)Nc3ccc(N4CCOCC4)cc3)c2n(C)c1=O	i
Cn1cnnc1SCC(=O)Nc1ccc2nc(SCc3ccccc3)sc2c1	i
CCOc1ccc(-c2nc(CSCC(=O)N3CCN(C(=O)c4ccco4)CC3)c(C)o2)cc1	0.7
CCOC(=O)C1=C(O)/C(=C/c2ccc(CNC(=O)C(=O)Nc3ccc(C)cc3)o2)N=C1C	i
Cc1nc2ccc(Br)cn2c(=O)c1Cl	1.0
COC(=O)c1ccccc1NC(=O)c1ccccc1OC	2.9
CCN1CCN(c2ncc3c(n2)CC(c2cc(OC)c(OC)c(OC)c2)CC3=O)CC1 (configuration not stated)	0.4
CCOC(=O)Cn1c(C)c(C#N)c2ccccc21	i
O=C(O)c1cccnc1NC1CCCC1	0.9
c1ccc(CCNc2nc3ccccc3n3nnnc23)cc1	0.2
CCCn1c(CCC(=O)O)ccc1-c1ccc(F)cc1	0.2
COc1ccc(-n2nc3cc(C)c(NC(=O)C(C)C)cc3n2)cc1	0.6
COC(=O)c1[nH]c2ccccc2c1NC(=O)CN1CCN(C/C=C/c2ccccc2)CC1	i
CCN1CCCC1CNC(=O)c1ccc(N2CCCC2=O)cc1 (configuration not stated)	0.8
c1ccc(-c2nc(NCc3ccco3)c3oc4ccccc4c3n2)cc1	i
CC(C)C(NC(=O)c1ccc(C(C)(C)C)cc1)C(=O)NC1=NCCS1 (configuration not stated)	6.1
CC1Cc2cc(C3(O)C(=O)c4ccccc4C3=O)ccc2N1 (configuration not stated)	0.9
CCN(CC)S(=O)(=O)c1ccc2oc(C(=O)NCc3ccc(C)cc3)c(C)c2c1	i
COc1ccc(OC)c(S(=O)(=O)N2CCC(C(=O)NCc3ccccc3OC)CC2)c1	0.2
Carrying on.
SMILES	H5N1 CPE
O=C(Cc1ccc(Br)cc1)c1ccc(O)cc1O	i
O=C(NC1CCCCC1)C(c1ccc(O)cc1)N(CC1CCCO1)C(=O)C1COc2ccccc2O1 (configuration not stated)	0.4
CC(C)N=Cc1c(O)[nH]c2ccccc12	i
Cc1cc(=O)[nH]c(SCC(=O)Nc2ccc(Br)cc2)c1C#N	i
COc1ccc(-c2nc(CS(=O)CC(=O)NCc3ccco3)c(C)o2)cc1 (configuration not stated)	1.3
COC(=O)c1[nH]c2ccc(C)cc2c1NC(=O)CN1CCCc2ccccc21	i
O=C(O)CSc1cnc2ccccc2n1	0.5
Cc1ccc(C2CC(=O)c3cnc(N4CCc5ccccc5C4)nc3C2)cc1 (configuration not stated)	1.5
CC1CN(c2cc3nccnc3cc2F)CC(C)O1 (configuration not stated)	2.2
O=C(Nc1nc2ccc(S(=O)(=O)N3CCCC3)cc2s1)C1CCCO1 (configuration not stated)	i
Cc1cc(N2C(=O)C(O)=C(C(=O)c3ccco3)C2c2cccnc2)no1 (configuration not stated)	1.2
CCCCCn1c(=O)[nH]c2cc(C(=O)NCCCN3CCCCC3)ccc2c1=O	i
Cc1ccccc1CSc1nnc(-c2cccnc2)n1N	0.5
O=C(Nc1ccccc1)NC1CCN(Cc2nnnn2C2CCCCC2)CC1	i
O=C(NCCCN1CCOCC1)c1cc2ccccc2o1	0.6
Cc1ccc(NC(=O)CN(C)S(=O)(=O)c2cccc3nsnc23)cc1C	3.8
Cc1cc(C)n2nc3nc(N4CCCC4)nc(-c4ccccc4)c3c2n1	1.1
COc1cc(Cn2cnnn2)ccc1O	i
O=c1c(-c2ccccc2)coc2c(CN3CCOCC3)c(O)ccc12	0.5
Cc1cc(-c2nnc(SCC(=O)NC3CCCC3)o2)no1	0.2
CO/N=C(/CS(=O)Cc1ccc(Cl)cc1)c1ccc(Cl)cc1 (configuration not stated)	4.4
O=C1COc2ccccc2CN1	i
CC1CCc2nc(NC(=O)CCSc3ccccc3)sc2C1 (configuration not stated)	0.6
Cc1cc2ncn(C(=O)N3CCOCC3)c2cc1C	0.9
CNC(=O)C1CCC(=O)N1Cc1ccc(C)cc1 (configuration not stated)	i
Other entries follow.
SMILES	H5N1 CPE
O=C(NCc1ccc2[nH]c3c(c2c1)CCCC3)N1CCOCC1	1.6
O=C(NCCCN1CCOCC1)c1cc(C(=O)C2CC2)c[nH]1	0.1
CC(=O)Nc1ccc(S(=O)(=O)N2CCSC2c2ccccc2Cl)cc1 (configuration not stated)	2.0
CCOC(=O)CN1C(=O)C(CC)Oc2ccc(Cl)cc21 (configuration not stated)	0.1
CCN(CC)S(=O)(=O)c1cc(C(=O)Nc2ccncc2)ccc1Cl	2.7
CN(C)/C=N/c1c(C#N)cnn1-c1ncnc2sc(-c3ccccc3)cc12	0.7
CCCCNC1CCS(=O)(=O)C1 (configuration not stated)	i
COc1cccc(-c2cc(C(=O)NCCc3ccccc3)no2)c1	i
O=C(NCc1ccco1)c1cc2ccccc2c(=O)o1	2.6
CCOC(=O)CC(=O)CSc1nc(C)nc2c1oc1ccccc12	i
O=C(Nc1ccc2c(c1)OCO2)c1nn(-c2ccccc2)c(=O)c2ccccc12	i
CNC(=O)c1cc2c(=O)n3cc(C)ccc3nc2n(C(C)C)c1=N	i
CCOC(=O)c1ccn(-c2nc(-c3ccco3)cc(C(F)(F)F)n2)n1	0.5
C=CCOC(=O)C1=C(C)OC(N)=C(C#N)C1c1ccccc1F (configuration not stated)	i
COc1ccc(C2C(C(C)=O)=C(O)C(=O)N2c2cccnc2)c(OC)c1 (configuration not stated)	i
O=C(Nc1ccncc1)c1cc2ccccc2o1	0.4
O=C(c1ccccc1)N1CCC(c2nc(-c3ccc(S(=O)(=O)N4CCOCC4)cc3)no2)CC1	0.6
O=C(c1cc2nc(-c3cccs3)cc(C(F)(F)F)n2n1)N1CCCc2ccccc21	i
CSc1nc2ccc(S(=O)(=O)N3CCc4ccccc43)cc2s1	0.4
Cn1nnc2cc(C(=O)N3CCCCCC3)ccc21	i
COc1cccc(CNC(=O)C2(C)Oc3ccccc3NC2=O)c1 (configuration not stated)	i
O=C(NCC1CCN(c2ccc(S(=O)(=O)N3CCOCC3)cc2)CC1)c1ccc(Cl)cc1	i
O=C(Oc1ccc(OC(=O)N2CCOCC2)cc1)c1ccccc1	2.7
CC1=C(C(=O)OCc2ccccc2)C(c2ccoc2)C(C#N)=C(N)O1 (configuration not stated)	i
Cc1cc(C)nc(SCc2nnc(SCC(=O)N3CCOCC3)o2)n1	0.1
Continued:
SMILES	H5N1 CPE
CCC1(CC)Cc2ccccc2-c2nc3ccccc3c(=O)n21	1.7
Cc1cccnc1N(C(=O)Nc1ccccc1)C1=NCC(C)(C)S1	0.1
COc1ccc(C(C(=O)OCCN(C)C)c2ccccc2)cc1 (configuration not stated)	i
COc1ccccc1NC(=O)N(Cc1ccco1)Cc1cc2ccc(C)c(C)c2[nH]c1=O	i
CCOC(=O)NCc1ccc(S(=O)(=O)Nc2c(C)cccc2C)cc1	0.6
COc1ccc(NC(=S)NCCc2c[nH]c3ccc(OC)cc23)c(OC)c1	2.2
Cc1ccc(-c2nc(N/N=C/c3ccncc3)c3ccccc3n2)cc1	i
O=C(c1ccc(CS(=O)(=O)c2cccc(C(F)(F)F)c2)o1)N1CCN(c2ccccn2)CC1	0.6
O=c1cc(-c2ccccc2)[nH]n1-c1nc2ccccc2s1	0.3
Cn1c(SCC(=O)Nc2ccccc2F)nnc1-c1ccc(S(=O)(=O)N2CCOCC2)cc1	i
Cn1cc(Br)cc2nc(C(F)(F)F)nc1-2	0.7
CCOc1ccccc1N1CCN(C(=O)c2ccncc2)CC1	0.4
CCN(CC)CCCN=Cc1c(O)n(-c2cccc(C)c2C)c(=O)[nH]c1=O	i
CC(C)(C)C1CCc2c(sc(NC(=O)c3cc(C4CC4)on3)c2C#N)C1 (configuration not stated)	1.1
CN(C)c1ccc(-c2ccccc2)nn1	i
COc1ccc2cc3cc(C(=O)NCc4cccs4)oc3nc2c1	0.2
O=C(/C=C/NNC(=O)c1ccccc1)c1ccc(Br)cc1	1.9
Cn1c(=O)c2c(SCc3ccccn3)nc(C3CC3)nc2n(C)c1=O	3.8
Cc1ccc2c3c1C(=O)C(=O)N3C(C)(C)CC2C (configuration not stated)	i
Cc1cc(C(=O)OCC(=O)NCCC(C)C)c2ccccc2n1	0.2
CN1OC(CC(=O)O)N(c2ccc(Cl)cc2)C1=O (configuration not stated)	0.7
Cc1c(NC(=O)c2cc(C3CC3)on2)c(=O)n(-c2ccccc2)n1C	1.2
COc1cc(C#CC#CCN2CCCCC2)ccc1O	i
CCS(=O)(=O)N1CCC(C(=O)NCCCN2CCCCCC2)CC1	1.2
Cn1c(CC(=O)Nc2ccccc2)nnc1SCCOc1ccccc1	2.1
(cont.)
SMILES	H5N1 CPE
CCOC(=O)C1CCCN(Cc2ccccc2OCC)C1 (configuration not stated)	0.3
O=C(C1Cc2ccccc2CN1S(=O)(=O)c1cccs1)N1CCCCC1 (configuration not stated)	0.7
COC(=O)c1cc2c(C)c(C)c3ccccn3c-2c1C(=O)OC	0.6
O=C1COc2ccc(C(=O)CSc3nnc(-c4cccs4)n3Cc3ccccc3)cc2N1	0.1
O=C(O)C(CCCCN1C(=O)C2C3C=CC(C3)C2C1=O)N1C(=O)C2C3C=CC(C3)C2C1=O (configuration not stated)	i
C/C(Cl)=C/CSc1nc2c(c(=O)[nH]c(=O)n2C)n1C(C)C	0.6
COc1cccc(C(=O)N/N=C2\SCC(=O)N2Cc2ccc3c(c2)OCO3)c1	0.6
Cc1nc(CN2CCOCC2)cc(=O)[nH]1	0.4
CCOC(=O)C1CCN(C(=O)CN(c2cccc(OC)c2)S(=O)(=O)c2ccccc2)CC1	0.2
O=C(Nc1ccc(N2CCOCC2)c(Cl)c1)c1cc(F)c(F)cc1Cl	i
CCCNC(=O)c1c(N)n(-c2ccc3c(c2)OCO3)c2nc3ccccc3nc12	i

Gathered by group: those above with a furan ring, fused or not (19)
SMILES	H5N1 CPE
Cc1ccc(C(=O)NCc2ccco2)cc1[N+](=O)[O-]	2.2
COC(=O)/C=C/C(=O)NCc1ccco1	0.2
Brc1ccc(-c2nc(-c3ccccn3)no2)o1	i
COc1ccc(CCN2CC(C(=O)NCc3ccco3)CC2=O)cc1OC (configuration not stated)	i
CCOc1ccc(-c2nc(CSCC(=O)N3CCN(C(=O)c4ccco4)CC3)c(C)o2)cc1	0.7
CCOC(=O)C1=C(O)/C(=C/c2ccc(CNC(=O)C(=O)Nc3ccc(C)cc3)o2)N=C1C	i
c1ccc(-c2nc(NCc3ccco3)c3oc4ccccc4c3n2)cc1	i
CCN(CC)S(=O)(=O)c1ccc2oc(C(=O)NCc3ccc(C)cc3)c(C)c2c1	i
COc1ccc(-c2nc(CS(=O)CC(=O)NCc3ccco3)c(C)o2)cc1 (configuration not stated)	1.3
Cc1cc(N2C(=O)C(O)=C(C(=O)c3ccco3)C2c2cccnc2)no1 (configuration not stated)	1.2
O=C(NCCCN1CCOCC1)c1cc2ccccc2o1	0.6
O=C(NCc1ccco1)c1cc2ccccc2c(=O)o1	2.6
CCOC(=O)CC(=O)CSc1nc(C)nc2c1oc1ccccc12	i
CCOC(=O)c1ccn(-c2nc(-c3ccco3)cc(C(F)(F)F)n2)n1	0.5
O=C(Nc1ccncc1)c1cc2ccccc2o1	0.4
CC1=C(C(=O)OCc2ccccc2)C(c2ccoc2)C(C#N)=C(N)O1 (configuration not stated)	i
COc1ccccc1NC(=O)N(Cc1ccco1)Cc1cc2ccc(C)c(C)c2[nH]c1=O	i
O=C(c1ccc(CS(=O)(=O)c2cccc(C(F)(F)F)c2)o1)N1CCN(c2ccccn2)CC1	0.6
COc1ccc2cc3cc(C(=O)NCc4cccs4)oc3nc2c1	0.2

Not all compounds are listed, so the mix of outcomes need not match the whole.
